hNpr1 antagonist: blocks ANP-stimulated signaling of human Npr1 receptor. P16066. HEK293 hNpr1 GloSensor cGMP, ANP-stimulated luminescence. Potency, µM (titrated, usually from 46.3 µM), for inactives: top-dose activity change, negative = inhibition, most hits filed as inhibitors. actives 1.6% (n = 76,000); active = well fitted inhibition curve with a large enough effect; inconclusive = small, poorly fitted or top-dose-only effect; inactive = no such curve, though single readings can be large or run the other way;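 note: nearly all actives have a fitted effect of over 60% in size; nearly all hits also lower the signal before the agonist is added; a reference antagonist and vehicle were the controls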
Target sequence (P16066 whole entry, looked up): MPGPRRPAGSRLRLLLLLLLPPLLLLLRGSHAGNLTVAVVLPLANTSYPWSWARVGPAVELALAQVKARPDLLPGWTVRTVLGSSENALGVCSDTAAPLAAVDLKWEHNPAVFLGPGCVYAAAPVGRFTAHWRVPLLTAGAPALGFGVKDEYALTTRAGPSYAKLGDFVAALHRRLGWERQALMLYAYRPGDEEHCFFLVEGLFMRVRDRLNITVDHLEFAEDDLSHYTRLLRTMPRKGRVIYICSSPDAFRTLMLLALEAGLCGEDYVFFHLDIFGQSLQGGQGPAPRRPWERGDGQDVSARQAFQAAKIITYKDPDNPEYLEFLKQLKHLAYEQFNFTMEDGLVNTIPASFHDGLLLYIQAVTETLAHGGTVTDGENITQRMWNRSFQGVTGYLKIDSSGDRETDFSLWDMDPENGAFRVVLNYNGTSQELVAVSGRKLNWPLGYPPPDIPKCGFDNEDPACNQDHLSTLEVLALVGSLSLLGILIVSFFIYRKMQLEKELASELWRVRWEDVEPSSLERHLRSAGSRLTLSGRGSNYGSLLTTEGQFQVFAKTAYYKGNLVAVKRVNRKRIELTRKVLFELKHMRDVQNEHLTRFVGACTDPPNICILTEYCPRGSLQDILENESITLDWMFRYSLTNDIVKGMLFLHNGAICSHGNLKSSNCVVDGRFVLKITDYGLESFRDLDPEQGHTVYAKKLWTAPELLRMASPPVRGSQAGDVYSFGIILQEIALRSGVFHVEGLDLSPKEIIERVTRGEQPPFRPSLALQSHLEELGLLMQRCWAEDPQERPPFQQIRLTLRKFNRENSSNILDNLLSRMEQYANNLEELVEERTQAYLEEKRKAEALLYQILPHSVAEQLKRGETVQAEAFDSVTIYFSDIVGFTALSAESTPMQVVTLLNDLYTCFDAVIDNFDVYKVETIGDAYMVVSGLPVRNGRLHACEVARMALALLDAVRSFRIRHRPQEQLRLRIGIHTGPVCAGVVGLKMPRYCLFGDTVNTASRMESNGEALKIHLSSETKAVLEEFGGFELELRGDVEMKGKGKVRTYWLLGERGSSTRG
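HEK293 cells stably expressing human Npr1 and cGMP GloSensor pGS-40F, loaded 2 h with 2% GloSensor reagent, given compound 30 min at room temperature. Luminescence read before and 20 min after 0.1 nM hNppA.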
Active calls of the source: *; ? = inconclusive; [ ] = remark or other dose. % is set by controls: 0 for no effect and ±100 for the full control effect; potency is the fitted concentration of half-maximal effect. The list is partial; rates above refer to the full screens.

hNpr1 antagonist	smiles
2.2%	COc1ccc(C(=O)N2C[C@@H]3CCCN4CCC[C@@H]([C@H]34)[C@H]2CCCC(=O)N2CCOCC2)cc1
10.1%	COC[C@@H]1CN(Cc2cnn(C)c2C)C[C@H]1C(=O)NC1CC1
-29.7%[70.6 µM]	O=C1[C@@H]2C[C@@H](CN2Cc2ccc(Cl)cc2)Oc2ccccc2N1CC1CC1
15.8µM*	CCOc1ccc(NC(=O)c2cc3n(n2)CC(c2ccc4c(c2)OCO4)OC3)cc1 (stereo unspecified)
-7.2%	c1ccc(-c2noc(-c3ccn4c(CN5CCc6ccccc6C5)nnc4c3)n2)cc1
-10.6%	CCC(=O)N(C1CCOCC1)C1CCN(S(=O)(=O)c2ccc(Cl)cc2C)CC1
-0.5%	Cc1ccc(-c2ccc3nnc(CNC(=O)c4ccc[nH]4)n3n2)cc1C
-3.2%	COc1ccc(C(=O)NCc2nnc3ccc(-c4ccc(C)cc4)nn23)c(C)c1
7.3%	CCN1C(=O)CCN(C(=O)Nc2ccccc2F)CC12CCOCC2
4.0%	COc1ccccc1OCCCN1CC[C@@](C)(O)[C@@H](O)C1
3.2%	COc1ccc(OC)c(NC(=O)CN2C(=O)NC3(CCS(=O)(=O)CC3)C2=O)c1
4.0%	COC[C@@H]1CN(C(=O)c2nn(C)c3ccccc23)C[C@H]1c1nc(C)no1
3.9%	Cc1ccc(NC(=O)N2CC(n3cc(C(=O)NCc4ccncc4)nn3)C2)cc1C
6.0%	CCCCc1ncc(CN2CCC(Oc3ccc(C(=O)NCCOC)cc3Cl)CC2)[nH]1
-1.3%	O=C(NCc1cccnc1)[C@@H]1C[C@@H](O)CN1C1CCN(C(=O)COc2ccccc2)CC1
3.7%[70.6 µM]	O=C(O)C[C@@H]1CCN(C(=O)c2ccco2)C[C@@H]1CCN1CCN(c2ccccc2)CC1
-11.4%	COc1ccc(-c2nnc3n2CCN(C(=O)Nc2ccc(Cl)cc2)C3)cc1
6.6%[70.6 µM]	CN(CC[C@H]1CN(C(=O)Cc2cccs2)CC[C@H]1CC(=O)O)c1ccccc1
-1.8%[70.6 µM]	CCCCN1C(=O)[C@@H]2C[C@@H](O)CN2C2(CN(Cc3ccc(OC)cc3)C2)C1=O
?	O=C(c1ccncc1)N1CCCC(CCc2ccc(F)cc2)C1 (stereo unspecified)

The final 2 entries of the section before lead into the next.
hNpr1 antagonist	smiles
-1.8%[70.6 µM]	CCCCN1C(=O)[C@@H]2C[C@@H](O)CN2C2(CN(Cc3ccc(OC)cc3)C2)C1=O
?	O=C(c1ccncc1)N1CCCC(CCc2ccc(F)cc2)C1 (stereo unspecified)
-4.0%	COc1ccc(NC2CCCN(C(=O)C(C)(C)c3ccccc3)C2)cc1 (stereo unspecified)
-13.7%	CC(=O)Nc1ccc(C(=O)NC2CCN(c3cc(-c4cccs4)[nH]n3)C2)cc1 (stereo unspecified)
2.5%	O=C(CCCc1ccccc1)N[C@@H]1CN(c2ccncn2)C[C@H]1CO
-0.1%	COCC(=O)N[C@H]1C[C@H]2C(=O)Nc3ccc(/C=C/c4ccc(OC)cc4)cc3C(=O)N2C1
7.5%	CN1CCC(N2CCN(C(=O)CCc3ccnc(N4CCOCC4)c3)CC2)CC1
2.7%	CC(C)C1CN(C(=O)c2cccnc2N2CCOCC2)CCC(=O)N1CC1CC1 (stereo unspecified)
0.6%	CCCN1CC2(CCN(Cc3nc(CCOC)no3)CC2)CC1C(=O)O (stereo unspecified)
-0.7%	O=C(CN1C(=O)NC2(CCOCC2)C1=O)N1CCN(c2ccccc2F)CC1
-1.9%[70.6 µM]	C[S+](=O)([O-])c1cccc(-c2nccc3c(=O)cc(N4CCOCC4)oc23)c1
2.1%[70.6 µM]	COc1cccc(CN[C@@H]2CCC[C@@H](C(=O)N3CCN(C)CC3)CC(=O)N(C)C2)c1
-1.5%	CC(C)C[C@@H]1N[C@H](C(=O)N2CCN(C)CC2)Cc2cn(Cc3ccccn3)c3cccc1c23
-3.1%	CCC1Oc2ccc(NC(=O)C(CC)c3ccccc3)cc2CN(Cc2ccc(OC)cc2)C1=O (stereo unspecified)
23.7%[70.6 µM]	CN(Cc1cccn1C)C1CCc2ccccc21 (stereo unspecified)
?	COc1ccc2nc([C@H]3CCN(C4CCCCC4)C3)[nH]c2c1
-4.5%	CNc1ccc(C(=O)N2CCC3(CCCNC3)C2)cc1 (stereo unspecified)
-14.3%[70.6 µM]	O=C(NCc1ccc(Cl)nc1)c1cnn2ncccc12
?	Cc1nc(CC(=O)NCc2ccc3[nH]c(-c4ccc(F)cc4)c(C)c3c2)cs1
-8.0%[70.6 µM]	COCCN1Cc2ccc(Nc3cccnc3)nc2C(C)(C(=O)Nc2ccccc2C)C1 (stereo unspecified)
10.6%	Cc1ncccc1C(=O)NCC12CCCC=C1NC(=O)CC2 (stereo unspecified)
-19.7%	CCOc1ccc(C(=O)N2CCCN(C(=O)C3CC3)c3ccccc32)cc1
-0.5%	COCCOC1CN(C2CCN(C(=O)c3ccc(OC)c(F)c3)CC2)C12CCCCC2 (stereo unspecified)
2.7%	COCCN1CCC(N2CCN(S(=O)(=O)c3ccc(Cl)cc3C)CC2)C1=O (stereo unspecified)
0.3%	Cn1c(Cn2cccn2)nnc1C1CC(NC(=O)CN2CCCCCCC2)C1 (stereo unspecified)
-7.2%	Cc1noc(-c2ccc(C(C)(C)C)cc2)c1C(=O)NCc1ccc(F)cc1F
-2.2%	c1cc(-c2nc(CC3CCNC3)no2)ccn1 (stereo unspecified)
1.1%	COc1cccc(NC(=O)N[C@H]2CCN(C(=O)CSC)[C@@H]2C(=O)N[C@H](Cc2ccccc2)C(N)=O)c1
2.8%	CCc1ccc(CN2CCN(Cc3ccc(F)c(F)c3)C(CCO)C2)o1 (stereo unspecified)
7.2%[70.6 µM]	CC(C)(C)CC(=O)N[C@H]1C[C@H]2C(=O)Nc3ccccc3C(=O)N2C1
-0.8%[70.6 µM]	COCc1cc(CC2(NCc3ccccc3)COC2)no1
-23.8%	CCOC(=O)c1ccc(NC(=O)Cn2c(N3CCOCC3)nc(CC)cc2=O)cc1
1.7%	CCn1nccc1C(=O)N1CCCn2cc(-c3ccccc3F)nc21
-4.1%	O=C(O)C1(Cc2ccccc2F)CCCN(c2ncnc3sccc23)C1 (stereo unspecified)
2.9%	CC(C)=CC(=O)N1CC[C@H](NC(=O)Nc2ccc(F)cc2F)[C@H]1C(=O)N[C@H](Cc1ccccc1)C(N)=O
26.3%	O=C(NCc1cccs1)c1nc2sccn2c1Br
11.2µM*	COc1ccc(NC(=O)c2cc3n(n2)CC(c2ccc4c(c2)OCO4)OC3)cc1 (stereo unspecified)
0.4%	COc1ccc(NC(=O)Cn2c(N3CCN(c4ccccc4)CC3)nc(C)cc2=O)cc1
1.5%	CN1C(=O)c2cccn2CC1CNC(=O)c1ccoc1 (stereo unspecified)
-0.8%	Cc1cnc(C(=O)N2CCCCCCNC(=O)[C@@H]3CCC[C@@H]32)cn1
-4.3%	CN(C)c1cccc(Oc2nnnn2[C@H]2CO[C@H]3[C@@H]2OC[C@@H]3NS(=O)(=O)c2ccccc2C#N)c1
3.8%	CC(C)=CC(=O)N1C[C@@H](NC(=O)Nc2ccc(F)cc2F)C[C@H]1C(=O)N[C@H](Cc1ccccc1)C(N)=O
10.3%	CC(C)CNC(=O)N(C)C1CCc2nn(C)c(=O)n2CC1 (stereo unspecified)
5.5%	Cc1cccc(NC(=O)N2CC(N(C3CCOCC3)S(C)(=O)=O)C2)c1
4.3%	CCSc1nnc(-c2ccccc2NC(=O)C(CC)n2cccn2)c(=O)[nH]1 (stereo unspecified)
12.1%	COc1ccc(-c2ccc3nnc(CNC(=O)COc4ccccc4)n3n2)cc1
-16.5%[70.6 µM]	N#Cc1cccc(CN2CC[C@@H]3OCC(=O)N(Cc4ccc(O)cc4)[C@H]3CC2)c1
0.2%[70.6 µM]	Cc1cc(-c2cc(-c3ccccn3)nc3c(C)noc23)ccn1
2.7%	CO[C@H]1C(=O)N(C2CCN(C(=O)c3ccncc3)CC2)[C@H]1c1ccncc1
5.7%	Cn1ccnc1CN1CCN(c2nccc(-c3ccccn3)n2)CC1
0.4%[70.6 µM]	O=C(Nc1ccccc1)c1nnn2c1CN(Cc1ccccc1)C(=O)CC2
0.5%	NC(=O)C1(N2CCCCC2)CCN(c2nccc(-c3ccccn3)n2)CC1
8.8%	COCCN1CCC2(CCC1=O)CCN(C(=O)C1CCOCC1)CC2
0.1%	COc1ccc(-c2nc(C)nc3c2CN(C(=O)c2ccccn2)CC3)cc1
10µM*	O=C(Cc1c[nH]c2ncc(-c3ccc(Oc4ccccc4)cc3)cc12)N1CCOCC1
0.3%[70.6 µM]	Cc1noc([C@@H](C)NS(=O)(=O)c2ccccc2)c1C(=O)O
-0.9%	Cc1cnn(CC(=O)N2C[C@@H](CO)[C@H](c3ccccn3)C2)c1
5.8%	C=CCC1(C(=O)O)CCCN(Cc2cnc(NCc3ccccc3)nc2)C1 (stereo unspecified)
-13.7%	CC(C)c1ccc(S(=O)(=O)N(C)CC2CCOC2)cc1 (stereo unspecified)
1.2%	CCC(C)(C)NC(=O)CC1Sc2ncccc2N(CC(C)C)C1=O (stereo unspecified)
-20.7%	O=C(CCCc1cn[nH]c1)N1CCCC(CCc2c(F)cccc2F)C1 (stereo unspecified)
-5.1%[70.6 µM]	Cc1[nH]cnc1CN1CCNc2cc(Nc3ccccc3)ncc2C1

Exported in markdown: 2 of the compounds above
| SMILES | hNpr1 antagonist |
| --- | --- |
| O=C(CCCc1cn[nH]c1)N1CCCC(CCc2c(F)cccc2F)C1 (stereo unspecified) | -20.7% |
| Cc1[nH]cnc1CN1CCNc2cc(Nc3ccccc3)ncc2C1 | -5.1%[70.6 µM] |

The results go on.
hNpr1 antagonist	smiles
0.0%	CCN1c2cc(C(=O)Nc3ccc(OC)cc3OC)ccc2C(=O)N2CCCCCC21 (stereo unspecified)
-20.2%	CN(C)c1ccc(C(=O)N2CCCN(c3cc(-c4ccc(F)cc4)[nH]n3)CC2)cc1
7.2%[70.6 µM]	O=C(c1ccccc1F)N1CCn2c(nn(-c3ccncc3)c2=O)C1
0.8%[70.6 µM]	CCCNC(=O)O[C@@H]1CC[C@]2(C)[C@H](CC[C@@H](O)[C@H]2CC(=O)N2CCCC2)[C@]1(C)CO
-4.0%	COC[C@@H]1CN(C(=O)Cn2cc(C)cn2)C[C@H]1c1nc(C2CC2)no1
0.0%[70.6 µM]	O=C(NCC(F)F)c1nc2sccn2c1Br
-1.9%	N#Cc1cccc(CN2CCc3c(n(Cc4cccnc4)n(CCc4ccccc4)c3=O)C2)c1
5.0%[70.6 µM]	COCCCNc1ncccc1-c1cc(-c2ccccc2)nc2c(C)noc12
-26.1%	COC(=O)C1=C(C)N=C2SC=C(CC(=O)NCc3cccc(F)c3)N2C1c1ccccc1OC (stereo unspecified)
0.1%	CN(C)C[C@@H]1CN(C2CCOCC2)C[C@H]1N
-2.6%	O=C(CN1C(=O)NC2(CCOCC2)C1=O)NC1CCc2ccccc21 (stereo unspecified)
-0.3%[70.6 µM]	COc1ccccc1-c1cc(-c2c(C)noc2C)cc2c1C(=O)N(C)C2
2.4%	CC(c1ccc(-c2cc(N)ncn2)cc1)N1CCCCC1 (stereo unspecified)
3.8%[70.6 µM]	COCC(=O)N[C@H]1C[C@@H](c2nc(-c3ccncc3)no2)N(C)C1
4.3%	COc1ccc(Cl)cc1S(=O)(=O)NC1CCc2n[nH]c(=O)n2CC1 (stereo unspecified)
-0.4%	COCCN1C(=O)c2cccn2CC1CNC(=O)c1ccccc1OC (stereo unspecified)
7.4%	Cc1ncoc1C(=O)NCC1Cn2cccc2CN1Cc1ccccc1 (stereo unspecified)
3.6%	CN(CC(=O)N1CCN(CCO)CC(O)C1)Cc1ccccc1F (stereo unspecified)
11.5%	COc1ccccc1C(=O)N1CCc2nnc([C@@H]3C[C@@H](O)CN3C)n2CC1
31.0%[activator]	CC(=O)Nc1ccc(CN2CCC3(C2)NC(=O)c2ccccc2O3)cc1 (stereo unspecified)

Continued, overlapping the part above by 3 compounds.
hNpr1 antagonist	smiles
3.6%	CN(CC(=O)N1CCN(CCO)CC(O)C1)Cc1ccccc1F (stereo unspecified)
11.5%	COc1ccccc1C(=O)N1CCc2nnc([C@@H]3C[C@@H](O)CN3C)n2CC1
31.0%[activator]	CC(=O)Nc1ccc(CN2CCC3(C2)NC(=O)c2ccccc2O3)cc1 (stereo unspecified)
-20.3%	O=C(c1ccc(C(F)(F)F)cc1)N1CCC2(CC1)CC(c1cccnc1)=NO2
-2.3%	CCc1nc2c(c(-c3ccc(O)cc3)n1)CCN(Cc1cccnc1)CC2
8.7%[70.6 µM]	Cc1ccc(C(=O)N2CC[C@H]3NC(=O)N(c4ccc(F)cc4)C(=O)[C@H]32)cc1
-0.2%	Cc1cnc(CC2CCN(S(=O)(=O)c3cn(C)cn3)C2)n1Cc1ccccc1 (stereo unspecified)
-1.9%	CN(C)c1ccc(C(=O)N[C@H]2CC(C)(C)[C@@H]3C[C@@](C)(O)CC[C@]23CCC(=O)NC2CC2)cc1
-6.4%	O=C(NC[C@H]1O[C@H](Cc2cc(COc3ccccc3)on2)CC[C@@H]1O)c1ccc2c(c1)OCO2
-1.2%	O=C(NCC1CN(C(=O)Cc2ccc(Oc3ccccc3)cc2)CC12CN(c1ccccc1)C2)c1cccnc1 (stereo unspecified)
-19.5%	CC(C)CNC(=O)CC(c1cccc(F)c1)c1cn(C)c2ccccc12 (stereo unspecified)
13.8%	Cc1ccc(-n2c(C3CCN(C(=O)CCC4CCCC4)CC3)n[nH]c2=O)cc1
4.1%	COC[C@@H]1CN(Cc2cccc(OC)n2)C[C@H]1C(N)=O
0.7%	COc1ccc(-c2nc3c(c(=O)[nH]2)CCN(C(=O)c2cc(Cl)ccc2OC)C3)cc1
